Screens (PubChem)
RecA intein inh: Mtb RecA intein splicing inhibitors, primary screen, biochemical, fluorescence, HTS | Protein RecA (Mycobacterium tuberculosis (strain ATCC 25618 / H37Rv)), P9WHJ3 | cell-free RecA intein splicing | inhibition, %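 (about 9 µM by stock and volumes)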 | 0.75% of 290,000 active | AID 2221, 2009; in the data active = inhibition above about 30%;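 note: 0% = vehicle wells and 100% = reference inhibitor control wells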
Target sequence (P9WHJ3 whole entry, looked up): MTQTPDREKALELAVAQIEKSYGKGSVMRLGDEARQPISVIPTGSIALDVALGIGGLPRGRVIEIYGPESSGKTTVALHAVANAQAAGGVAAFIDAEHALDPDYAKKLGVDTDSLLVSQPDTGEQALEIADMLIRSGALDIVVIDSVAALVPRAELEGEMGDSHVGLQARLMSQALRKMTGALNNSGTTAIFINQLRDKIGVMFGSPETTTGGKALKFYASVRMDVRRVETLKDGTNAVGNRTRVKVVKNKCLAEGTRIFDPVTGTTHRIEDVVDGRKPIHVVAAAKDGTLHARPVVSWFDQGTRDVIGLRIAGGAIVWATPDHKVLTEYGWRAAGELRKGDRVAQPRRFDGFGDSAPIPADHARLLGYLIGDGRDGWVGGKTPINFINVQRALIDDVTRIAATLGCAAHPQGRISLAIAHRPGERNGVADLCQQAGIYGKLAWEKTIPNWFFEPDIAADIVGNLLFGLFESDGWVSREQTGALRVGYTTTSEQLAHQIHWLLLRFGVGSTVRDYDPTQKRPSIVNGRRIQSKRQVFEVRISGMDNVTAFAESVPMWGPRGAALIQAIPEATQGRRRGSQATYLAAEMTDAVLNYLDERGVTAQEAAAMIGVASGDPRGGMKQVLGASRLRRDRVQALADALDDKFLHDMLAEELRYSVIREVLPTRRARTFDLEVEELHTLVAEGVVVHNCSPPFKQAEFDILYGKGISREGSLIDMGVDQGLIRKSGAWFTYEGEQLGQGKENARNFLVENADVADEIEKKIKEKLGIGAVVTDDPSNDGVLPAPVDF
Mtb betalactam: beta-lactam sensitization of Mtb H37Rv, H37Rv; 0.27% of 330,000 active; inhibition, % at 25 µM; AID 434955, 2010; M. tuberculosis H37Rv growth with meropenem, percent inhibition; hits of this screen are not shown here;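 active = about 74% or more and at least 40 points above the plate without the antibiotic, then above 30% in a dose series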;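 note: growth measured after seven days incubation then overnight dye step; 0% = bacteria only wells and 100% = bacteria with antibiotic; twin plates without the antibiotic show which effects depend on it; some results filed as inactive read as strong as hits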
Mtb growth: M. tuberculosis H37Rv growth inhibitors, H37Rv strain (AID 1626) | M. tuberculosis H37Rv growth inhibition; higher % means a stronger effect | inhibition, % at 10 µM; hits with a dose series show IC50 in µM | 0.95% of 220,000 active;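 active = confirmed in a dose series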;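 note: bacteria incubated seven days before Alamar blue readout; 0% = bacteria only wells and 100% = bacteria with antibiotic wells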
Arbovirus inh: antivirals against arbovirus infection, primary screen, cell-based, full library, 10K replicate subset. AID 1251, 2008. 0.37% of 200,000 active. inhibition, % at 10 µM. arbovirus infection cell-based antiviral screen;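 active = inhibition from about 30%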;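 note: bluetongue infection of BSR cells; cell survival read as ATP light after 72 h; 0% = infected wells without compound and 100% = uninfected wells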
YopH PTP inh: YopH tyrosine phosphatase inhibitors, primary screen, biochemical, fluorescence Ex485/Em525; YopH tyrosine phosphatase [Yersinia enterocolitica]; inhibition, %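 (about 10 µM by stock and volumes)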; 0.16% of 140,000 active;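 active = inhibition of 50% or more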;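 note: controls were vehicle for no effect and minimum signal wells for full effect; inactives centre near -20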
Arbovirus inh repeat: also measured in Arbovirus inh; calls as there; inhibition, %; measured here: 10K subset replicate screen; many hits read low in the repeat;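 first of two repeat runs on a subset; 0% = infected and 100% = uninfected wells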
Numbers without * were called inactive; x = no result given.

SMILES | RecA intein inh | Mtb betalactam | Mtb growth | Arbovirus inh | YopH PTP inh | others
Cc1cc(C)cc(NC(=S)N2CCC(NC(=O)c3ccccc3C)CC2)c1 | -1.9 | -3 | -4% | -3 | x
O=c1[nH]c(Cc2ccccc2)nc2ccccc12 | -3.2 | 3 | -10% | 1 | x
COc1ccc(NC(=O)CSc2ccc(-c3ccco3)nn2)cc1 | 2.1 | 11 | x | x | x
Clc1ccc(OCc2nn3c(-c4ccncc4)nnc3s2)cc1 | 3.4 | 20 | 7% | 10 | -13
Cc1ccc(C(=O)N/C(=C\c2cn(C)c3ccccc23)C(=O)N2CCN(C)CC2)cc1 | -3.5 | -2 | x | x | x
O=C(Nc1cccnc1)c1ccc(COc2ccccc2Br)o1 | 2.6 | 1 | 4% | -42 | -10
CCN(CC)C(=O)CSc1nnc(-c2ccccn2)n1-c1ccc(C)c(C)c1 | -2.1 | -1 | -4% | 2 | -34
Fc1cccc(Cl)c1C1Nc2cccc3cccc(c23)N1 | -17 | 9 | x | x | x
O=C1COc2ccc(C(=O)COC(=O)C3CCN(S(=O)(=O)c4cccs4)CC3)cc2N1 | -1.0 | -1 | -3% | 9 | -24
COc1cccc(-c2noc(C3CCCN(C(=O)c4ccccc4OC)C3)n2)c1 (stereo unspecified) | -1.1 | -1 | x | x | x
OCC12COC3c4ccccc4C(OC1)N32 (stereo unspecified) | -5.4 | 0 | -5% | 7 | -31
Cc1ccc(N2CCN(S(=O)(=O)N(C)C)CC2)c(C)c1 | 8.0 | -3 | -1% | -2 | -6
N#Cc1ccsc1NC(=O)CN(Cc1ccccc1)Cc1ccccc1 | 17 | 9 | 11% | 1 | 13
Cc1ccccc1NC(=O)CN1CCC(NC(=O)Nc2ccccc2)CC1 | 1.3 | 5 | 1% | -5 | 1
Cc1cccc(CCNC(=O)CCS(=O)(=O)c2cc3c(cc2Cl)NC(=O)CO3)c1 | -0.1 | -2 | x | x | x
CN(C)c1ccc(-c2nnc(-c3cccs3)o2)cc1 | -0.2 | -2 | 4% | -2 | x
Cc1nn(-c2ccccc2)c(C)c1/C=N/O | 0.6 | 10 | 9% | -3 | -125
O=C1CC(=C2c3ccccc3-c3ccccc32)C(=O)N1CCN1CCN(c2cccc(Cl)c2)CC1 | x | 3 | 6% | x | 15
COc1ccc(NC(=O)c2sccc2C)c([N+](=O)[O-])c1 | -0.4 | -1 | -8% | -3 | 2
CCCNC(=O)c1cc(-c2ccc(Br)cc2)on1 | -0.8 | -4 | x | -5 | -35

The final 2 compounds of the part above are carried over, then new ones follow.
SMILES | RecA intein inh | Mtb betalactam | Mtb growth | Arbovirus inh | YopH PTP inh | others
COc1ccc(NC(=O)c2sccc2C)c([N+](=O)[O-])c1 | -0.4 | -1 | -8% | -3 | 2
CCCNC(=O)c1cc(-c2ccc(Br)cc2)on1 | -0.8 | -4 | x | -5 | -35
CN(CC(=O)Nc1ccc(N2CCOCC2)cc1)CC(=O)Nc1ccc([N+](=O)[O-])cc1Br | -0.9 | 0 | 1% | 14 | x
O=C(N/C(=C\c1cccc([N+](=O)[O-])c1)C(=O)N1CCCCC1)c1cccs1 | -1.7 | -7 | -8% | 6 | -19
CCC(O)(CC)C(=O)N/N=C/c1cc(Br)cc(Br)c1O | -5.8 | 35 | 0% | x | x
CCOc1ccc(-c2nnn(CC(=O)Nc3ccccc3OC)n2)cc1OCC | 7.3 | 3 | -4% | -6 | -24
COc1ccc2c(c1)CCc1c(C(=O)N3CCc4ccccc4C3)noc1-2 | 8.3 | 88 | 10% | -12 | -43
COc1ccc(NC(=O)CSc2ccccn2)cc1 | x | 40 | 7% | -5 | 9
Cc1nnc(SCC(=O)n2c3c(c4ccccc42)CCCC3)s1 | -3.4 | -1 | -4% | 4 | 12
c1ccc(-c2ccc(C3=Nn4c(Cn5nnc6ccccc65)nnc4SC3)cc2)cc1 | 0.7 | x | 50% | 6 | -13
COC(=O)c1ccc(COC(=O)c2cnccn2)cc1 | -0.1 | 26 | 16% | -1 | x
O=C(CN1C(=O)C2C3C=CC(C4CC34)C2C1=O)Oc1ccccc1 (stereo unspecified) | 0.1 | -3 | 49% | 6 | x
Cc1cccc(Cl)c1OCCN1CCCC1 | 0.3 | 0 | x | x | x
Cc1ccc(S(=O)(=O)N2CCCCC2)cc1NC(=O)C1CC(=O)N(Cc2ccccc2)C1 (stereo unspecified) | -4.2 | -3 | -7% | 0 | -23
CSc1nc(C)cc(OCCNS(=O)(=O)c2ccc(C)cc2)n1 | 4.8 | -11 | 8% | x | 8
COc1ccc(C2=CC3=C(Br)C(=O)C(C)(OC(=O)c4ccc(Cl)nc4)C(=O)C3=CO2)cc1 (stereo unspecified) | -2.2 | -1 | 6% | x | x
COCc1cc(C)n(CC(=O)Nc2cccc(C)c2)c(=O)c1C#N | 1.1 | 3 | 0% | 4 | x
CC1CCN(c2ccc3c(c2)S(=O)(=O)c2ccccc2C3=O)CC1 | -48 | 3 | -5% | x | x
Cc1oc(-c2ccccc2)cc1C(=O)Nc1ccc(N(C)C)cc1 | 3.0 | 45 | 10% | -9 | -12
Cc1occc1C(=O)NCc1cccs1 | 1.0 | -5 | 0% | 3 | -4 | Arbovirus inh repeat=1
CC(=O)Nc1ccc(NC(=O)C(c2ccccc2)c2ccccc2)cc1 | -0.2 | 0 | x | x | x
CS(=O)(=O)N1c2ccccc2[C@]2(Br)C[C@H]3C(=O)N[C@@H](Cc4ccccc4)C(=O)N3[C@H]12 | -0.2 | -12 | -2% | x | x
COc1cc(/C=C(\C#N)c2nc3ccc(C)cc3[nH]2)cc([N+](=O)[O-])c1O | x | x | 51% | 44* | x
Cc1[nH]n(-c2ccccc2)c(=O)c1/C=N/O | 8.3 | 11 | -2% | -10 | -1
CCOC(=O)/C(C#N)=C\C=C1C=CN(C)C=C1 | -5.9 | 5 | -1% | 5 | 14
COc1ccccc1NC(=O)c1ccc2c(c1)N(CC#N)C(=O)C(C)(C)O2 | -1.4 | -1 | x | x | x
CC(C)(C)c1ccc(OCC(=O)N2CCCCCC2)c(Br)c1 | 13 | -5 | 15% | -21 | x
Cc1ccc(N(CC(=O)N2CC(=O)Nc3ccccc32)S(=O)(=O)c2ccc3c(c2)OCCO3)cc1 | x | 2 | -2% | -2 | -30
Cn1nc(C(C)(C)C)c([N+](=O)[O-])c1C(=O)NCCO | -0.6 | -11 | -6% | 3 | -25
Cc1ccc(S(=O)(=O)N(C)C)cc1N | 0.5 | -3 | 2% | 7 | x
CC(C)(C)OC(=O)N1CC=C2C(C#N)=C(N)C(C#N)(C#N)C(c3cccs3)C2C1 (stereo unspecified) | 53* | 9 | 0% | -7 | -18
CCN1CCN(c2cc(C)c3cc(NC(=S)N4CCN(c5ccccc5)CC4)ccc3n2)CC1 | -0.7 | -4 | 11% | -8 | x

An excerpt from above in order of SMILES length, lowest first:
SMILES | RecA intein inh | Mtb betalactam | Mtb growth | Arbovirus inh | YopH PTP inh | others
CCOC(=O)/C(C#N)=C\C=C1C=CN(C)C=C1 | -5.9 | 5 | -1% | 5 | 14
CC(C)(C)c1ccc(OCC(=O)N2CCCCCC2)c(Br)c1 | 13 | -5 | 15% | -21 | x
Cn1nc(C(C)(C)C)c([N+](=O)[O-])c1C(=O)NCCO | -0.6 | -11 | -6% | 3 | -25
COc1cc(/C=C(\C#N)c2nc3ccc(C)cc3[nH]2)cc([N+](=O)[O-])c1O | x | x | 51% | 44* | x

New compounds follow
SMILES | RecA intein inh | Mtb betalactam | Mtb growth | Arbovirus inh | YopH PTP inh | others
COc1ccc(/C=N/c2oc(C)c(C)c2C#N)c(OC)c1 | x | -6 | 2% | -4 | x
CCOC(=O)C1=C(C)N(CC(C)C)C(=O)C1 | 0.9 | -3 | -4% | 2 | x
COC(=O)c1c(C(=O)OC)c(-c2ccc(OC)cc2)n2c1CS(=O)(=O)C2 | -1.5 | -2 | x | x | x
Nc1cccc(S(=O)(=O)c2cccc(N)c2)c1 | -0.1 | 2 | x | -1 | -30
O=C(O)c1cccc(Oc2ncnc3sc4c(c23)CCCC4)c1 | 0.3 | -4 | 5% | 2 | x
CCc1cccc(NC(=O)COC(=O)/C=C/c2cccs2)c1 | 1.2 | 43 | x | x | x
CCOc1cccc(OCCCOc2ccccc2)c1 | 6.1 | -11 | 8% | -1 | 4
CCN(C(=O)CN1C(=O)S/C(=C\c2ccc(F)cc2)C1=O)C1CCS(=O)(=O)C1 (stereo unspecified) | 1.6 | -7 | x | x | x
Cc1ccc(NC(=O)C2(N(CC(C)C)C(=O)Cn3nnnc3N)CCCCC2)cc1 | -0.5 | -3 | -1% | -5 | -27
Cc1ccc2c(c1)N(C)/C(=C/c1cccc[n+]1CCO)S2 | 0.5 | 1 | x | x | x
O=C(NC1CCN(S(=O)(=O)c2ccc(F)cc2)CC1)c1ccccc1 | 0.1 | -16 | x | x | x
C=C1CCN(c2ccc(C(=O)O)cc2[N+](=O)[O-])CC1 | -5.0 | 4 | -6% | x | x
CCc1ccc(-n2c(SCC(=O)Nc3cccc(S(=O)(=O)NC4=NCCCCC4)c3)nc3ccccc3c2=O)cc1 | -0.5 | -6 | 7% | 2 | -25
CCN(Cc1cc(=O)n2ccsc2n1)c1cccc2ccccc12 | 0.6 | -4 | -3% | -24 | -3
COCCn1c(SCC(=O)NC2CCCC2)nnc1C(C)C | -0.9 | -1 | x | x | x
COc1cc(C2N(c3ccccc3)CCN2c2ccccc2)ccc1OC(C)=O | 5.1 | -3 | 12% | 2 | -1 | Arbovirus inh repeat=-3
CCOC(=O)CSc1nc2sc(C)c(C)c2c(=O)n1C | 0.0 | 1 | -8% | 0 | -58
CC1=NN(C(N)=S)C(=O)C1N=Nc1ccc(S(N)(=O)=O)cc1 (stereo unspecified) | 2.7 | 1 | x | x | x
CCOc1c(Br)cc(CNc2ncn[nH]2)cc1OC | 3.2 | -3 | -7% | -6 | -2
O=C1NC(c2ccccc2)=CC(c2ccccc2)N1 (stereo unspecified) | -1.9 | 3 | 0% | 7 | x
CC(C)(C)NC(=O)COC(=O)c1ccc(Cl)cc1O | 1.5 | 2 | 2% | 8 | x
CCN1CCCc2cc(CN(CCN3CCOCC3)C(=S)Nc3ccc(OC)c(OC)c3)ccc21 | -2.2 | -1 | 0% | 5 | x
COc1ccc(NS(=O)(=O)c2cccc(C(=O)NCc3ccco3)c2)cc1 | 1.7 | -2 | x | x | x
CCOC(=O)c1n[nH]n2c1nc(=S)c1ccccc12 | 1.7 | 1 | x | x | x
NS(=O)(=O)c1ccc(CCNC(=O)COC(=O)c2cc([N+](=O)[O-])ccc2N2CCOCC2)cc1 | 1.6 | -5 | x | x | x
O=C(Nc1cccc(-c2cnc3ccccc3n2)c1)c1ccncc1 | 1.1 | 1 | 3% | 1 | x
Cc1ccc(NC(=O)c2cc(=O)c3ccccc3o2)cc1S(=O)(=O)N1CCCCC1 | -3.2 | -6 | -3% | -5 | x
CN(C)S(=O)(=O)c1cccc(NC(=S)NCCc2ccccn2)c1 | 4.5 | 0 | 0% | 3 | x
CCc1ccc(NS(=O)(=O)c2c(C(=O)N3CCCCCC3)c(C)n(C)c2C)cc1 | -0.8 | 1 | x | x | x
CCOC(=O)c1nnn(-c2nonc2-n2cccc2)c1CN1CCOCC1 | 4.1 | -10 | 1% | 4 | -4
O=C(/C=C/c1ccc(Cl)cc1Cl)NCc1ccncc1 | 0.4 | 5 | 12% | 4 | -9
Cc1ccc(N2CCN(C(=S)Nc3ccc(Cl)cc3)CC2)cc1 | -0.5 | -5 | x | x | x
CCOC(=O)C1=C(CN2CCCCC2)NC(=O)NC1c1cc(C)ccc1C (stereo unspecified) | 1.8 | -4 | 0% | -3 | 6
O=C1CCN(N=Nc2cccc(Cl)c2)N1 | 40* | -3 | 0% | 1 | -13
COC(=O)[C@@]1(Cc2ccc(OC)cc2)[C@H]2c3cc(C(=O)N(C)C)n(CCc4ccc(OC)c(Br)c4)c3C[C@H]2CN1C(=O)c1ccccc1 | 13 | 98 | x | -11 | -14
Cc1c(C(=O)N2CCOCC2)sc2ncn(CC(=O)N3CCC(C)CC3)c(=O)c12 | 3.2 | -2 | -6% | 12 | -34
O=C(CCc1ccccc1)NCCSCc1c(F)cccc1Cl | -2.0 | -4 | 5% | 8 | -16
COc1ccc(C(=O)NNC(=O)Cn2nnc(-c3ccc(OC)c(OC)c3)n2)cc1 | -0.3 | -5 | -8% | -2 | x
O=C(N/N=C/c1ccc2nccnc2c1)c1ccc(Br)cc1 | -0.6 | -1 | -10% | x | x
Cn1ccnc1-c1nnn(-c2ccc(F)cc2)n1 | 2.1 | 5 | -3% | x | x
COC(=O)C1N[C@@H]([C@@H](NC(=O)COc2ccccc2)C(=O)NCc2ccc(OC)cc2)SC1(C)C (stereo partly specified) | 0.5 | -11 | -1% | x | x

This is a subset; the hit share may differ from the screen's.
